# Bioassay records (PubChem BioAssay)
# SARS PLP yeast = inhibitors of SARS-CoV papain-like protease in yeast; hit rate 0.19% among 330,000; Potency, µM (titrated, usually from 32.9 µM), without a hit: at the top dose activity, positive = growth rescue; S. cerevisiae expressing SARS-CoV PLpro, growth rescue; control for the full effect not named in the record; AID 485353; also: 0% is about no effect; nearly all actives have a fitted effect of over 55% in size; growth read by luminescence after 48 h
# RE007 growth inh = less growth of the S. pombe RE007 Vpr strain; S. pombe RE007 Vpr strain, BacTiter-Glo ATP luminescence, 24 h; control for the full effect not named in the record; Potency, µM (doses to about 92.2 µM), inactives show top-dose activity change, negative = less growth; hit rate 0.21% among 360,000; active = well fitted falling curve with a large enough effect; inconclusive = small, poorly fitted or top-dose-only effect; inactive = no such curve, though single readings can be large or run the other way;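 also: % is scaled to controls: 0 for no effect and ±100 for the full control effect; nearly all actives have a fitted effect of over 50% in size; the assay follows cell death caused by Vpr and the record does not say whether a fall means rescue or toxicity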
#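 Fission yeast RE007 carrying one integrated HIV-1 vpr copy, seeded at OD 0.01 in PMG+AL medium with 23 nL pinned compound. Grown 24 h at 30 degrees; viability read by BacTiter-Glo luminescence after 5 min.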
# NS1 inh = blocks influenza NS1 protein function; S. cerevisiae slowed by influenza A NS1, growth recovery by OD600; Potency, µM (top dose mostly 46.1 µM), inactives show at the top dose activity, positive = more growth; hit rate 0.4% among 270,000; AID 2326; also: actives are rising curves; nearly all actives have a fitted effect of over 50% in size
#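 In this qHTS, NS1 from influenza A is expressed in budding yeast, where it slows growth. Cells are switched from glucose to 2% galactose medium (pH 6.0, -URA), treated with compound, and growth recovery is read at OD600.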
# Cruzain inh noDet = inhibitors of Trypanosoma cruzi cruzain without detergent. purified cruzain, Z-FR-AMC fluorescence, no detergent. Potency, µM, for inactives: max response, negative = inhibition, usual class: inhibitors. hit rate 2.3% among 200,000; active = well fitted curve in the direction sought with a large enough effect; inconclusive = small, poorly fitted or top-dose-only effect, or another doubt; inactive = no such curve, though single readings can be large; an effect the other way counts as inactive or inconclusive;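 also: plate controls were enzyme without inhibitor for no effect and buffer without enzyme for full effect; nearly all actives have a fitted effect of over 40% in size; top concentration of the series not given in the record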
# Target sequence (P25779 123-467 limits assumed): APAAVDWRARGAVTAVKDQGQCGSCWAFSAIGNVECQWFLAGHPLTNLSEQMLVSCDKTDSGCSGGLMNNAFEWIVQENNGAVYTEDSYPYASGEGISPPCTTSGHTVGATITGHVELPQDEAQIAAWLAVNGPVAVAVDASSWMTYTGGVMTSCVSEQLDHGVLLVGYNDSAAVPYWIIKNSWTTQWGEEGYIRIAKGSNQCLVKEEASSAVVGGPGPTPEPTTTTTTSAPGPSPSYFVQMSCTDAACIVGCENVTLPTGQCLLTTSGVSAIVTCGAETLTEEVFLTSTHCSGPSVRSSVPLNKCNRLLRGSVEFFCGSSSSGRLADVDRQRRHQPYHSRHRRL
#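 Purified cruzain at 1.5 nM, pre-incubated 15 min with compound at room temperature in 100 mM sodium acetate pH 5.5, 5 mM DTT, 0.00005% Triton X-100. Reaction started with 2 uM Z-FR-AMC; AMC fluorescence increase over 60 s gives rate.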
# Lassa entry inh = blocks Lassa virus binding to or entry into cells | Lassa virus pseudotype entry inhibition, cell reporter; control for the full effect not named in the record | hit rate 1.2% among 300,000 | Potency, µM (series often up to 37.9 µM), inactives show at the highest dose activity change, negative = inhibition, actives largely listed as inhibitors; active means well fitted inhibition curve with a large enough effect; inconclusive means small, poorly fitted or top-dose-only effect, or effect the other way; inactive means flat fitted curve, though single readings scatter; tested in HEK293 cells; also: % is scaled to controls: 0 for no effect and ±100 for the full control effect; nearly all actives have a fitted effect of over 50% in size; luciferase read-out
# Cruzain inh Det = inhibitors of Trypanosoma cruzi cruzain with detergent; AID 1478; P25779; purified cruzain, Z-FR-AMC fluorescence, 0.01% Triton; Potency, µM, for the others: max response, negative = inhibition, actives largely listed as inhibitors; hit rate 0.43% among 200,000; active = well fitted curve in the direction sought with a large enough effect; inconclusive = small, poorly fitted or top-dose-only effect, or another doubt; inactive = no such curve, though single readings can be large; an effect the other way counts as inactive or inconclusive;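 also: plate controls were neutral wells for no effect and buffer without enzyme for full effect; nearly all actives have a fitted effect of over 40% in size; top concentration of the series not given in the record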
#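 Sodium acetate buffer (100 mM, pH 5.5) containing 5 mM DTT and 0.01% Triton X-100 hosted 1.5 nM cruzain and test compound for 15 min at room temperature. Cleavage of 2 uM Z-FR-AMC was then tracked by fluorescence.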
# Marburg entry inh = Marburg virus entry inhibition; AID 540276; hit rate 1.8% among 300,000; Potency, µM (highest dose often 37.8 µM), for the others: top-dose activity change, negative = inhibition, most hits filed as inhibitors; Marburg virus pseudotyped entry inhibition, cell reporter; control for the full effect not named in the record; about a third of the inactives were read at about 46 µM; active = well fitted inhibition curve with a large enough effect; inconclusive = small, poorly fitted or top-dose-only effect, or effect the other way; inactive = flat fitted curve, though single readings scatter; tested in HEK293 cells; about a fifth of its hits are not listed in these tables; also: % is scaled to controls: 0 for no effect and ±100 for the full control effect; luciferase read-out
# 2A StopGo = FMDV 2A StopGo reporter, luciferase signal; AID 1159524; Potency, µM (highest dose often 57.9 µM), without a hit: at the top dose signal change, negative = less light; human cells with a luciferase reporter of 2A StopGo recoding; control for the full effect not named in the record; hit rate 1.2% among 410,000; active = well fitted falling curve with a large enough effect; inconclusive = small, poorly fitted or top-dose-only effect; inactive = no such curve, though single readings can be large or run the other way; tested in HEK293T cells; also: % is scaled to controls: 0 for no effect and ±100 for the full control effect; nearly all actives have a fitted effect of over 45% in size; luciferase light after 4 h
# An asterisk follows results filed as active; ? = inconclusive; · = not tested or not shown; & = joins results of further samples; [ ] = dose if it differs, or a comment. Unless noted, calls follow the shape of the dose curve; as a rule, active means well fitted rising curve with a large enough effect; inconclusive means small, poorly fitted or top-dose-only effect; inactive means no such curve, though single readings can be large or run the other way. Potency is read from the fitted curve at half-maximal effect.
SMILES,SARS PLP yeast,RE007 growth inh,NS1 inh,Cruzain inh noDet,Lassa entry inh,Cruzain inh Det,Marburg entry inh,2A StopGo
O=C1CC(N2CCSCC2)C(=O)N1c1ccc(Br)cc1 (stereo not given),-5%,?,-2%,·,·,·,·,21%
COC(=O)CCCC1=CC2=CC(=O)C(C)(OC(=O)c3cccs3)C(=O)C2=CN1CC(C)C (stereo not given),2%,-7%,1%,·,·,·,-3%&-3%[14.2 µM],-10%
O=C(c1cn(CC2CCCCC2)nn1)N1CCN(c2ccc(F)cc2)CC1,-1%,2%,-22%,·,·,·,·,-22%
N#Cc1nc(-c2ccco2)oc1NCc1ccco1,-9%,-11%,-91%,3%,?,-5.7%,10%,3%
Cc1ccc(S(=O)(=O)N2CCN(S(=O)(=O)N(C)C)CC2)cc1,2%,3%,3%,-4%,4%,1.8%,?,-10%
O=C(Nc1cccc(C(F)(F)F)c1)c1cc2nc(-c3ccccc3)cc(C(F)(F)F)n2n1,·,·,·,12%,13%[46.1 µM],-1.5%,·,4%
Cc1cc(CNC(=O)C2CCC(=O)N(CCc3cccc(F)c3)C2)nn1C (stereo not given),1%,?,6%,·,3%,·,-6%,-18%
Cc1cccc(N2CCN(C(=O)c3ccc4c(c3)c(C)c(C)n4C)CC2)c1C,·,·,·,10%,?,0.8%,·,-7%
N#Cc1c(-c2ccc(Cl)cc2)c(-c2ccc(Cl)cc2)nn(CCOC(=O)CCC(=O)O)c1=O,·,-11%,·,·,?,·,-15%,-17%
CCOC(=O)C(=O)Nc1sc(C(=O)N(CC)CC)c(C)c1C#N,0%,11%,-1%,·,7%,·,13%,-1%
O=C(CN1CCN(c2ncccn2)CC1)N1CCc2ccccc21,-4%,-15%,4%,0%,12%,-3.8%,6%,11%
O=C(NCCCNC(=O)c1cnccn1)c1ccc(Cl)c(Cl)c1,-1%,-8%,-2%,·,15%,·,-5%[46.1 µM],8%
O=C1NC(c2ccc3c(c2)OCO3)Nc2ccccc21 (stereo not given),2%,10%,8%,-1%,-11%,-11%,-21%,11%
O=C(Nc1ccc2oc(-c3cc(Br)ccc3Cl)nc2c1)c1ccc2ccccc2c1,·,·,·,?,1%[46.1 µM],-0.5%,·,-11%
Cn1c(-c2ccc[nH]c2=O)nc2cc(Cl)ccc21,-9%,-10%,13%,-6%,-9%,-6.8%,?,-8%
CCN(Cc1cc2cc(C)ccc2[nH]c1=O)S(=O)(=O)c1ccccc1,-1%,8%,-8%,23%,6%,6.0%,?,0%
COc1cc(NC(=O)COC(=O)CNS(=O)(=O)c2ccc(F)c(F)c2F)cc(OC)c1,-8%,1%,-16%,25µM*,0%,28µM*,24%,-9%
COc1ccc(/C=N/NC(=O)CCn2nc(C)cc2C)cc1O,-1%,7%,5%,·,-8%[46.1 µM],·,-14%[46.1 µM],-11%
Cn1c(C(=O)O)c(CC(=O)N2CCN(Cc3ccccc3)CC2)c2ccccc21,3%,-18%,-4%,0%,2%,3.1%,-7%,-10%
CCOC(=O)C1CCN(C(=O)CCNS(=O)(=O)c2cc(Br)cnc2N)CC1,?,7%,7%,·,·,·,·,-16%
CC(C)C(=O)Nc1ccc2oc(-c3cc(F)c(F)cc3Cl)nc2c1,16%,-8%,-2%,19%,?,-1.3%,?,43%[activator]
CCC1(c2ccccc2)NC(=O)N(CC(=O)Nc2ccc(S(N)(=O)=O)cc2)C1=O (stereo not given),-5%,7%,1%,·,·,·,-5%[46.1 µM],4%
COC(=O)CSC1=C(C#N)C(c2ccccc2)CC(=O)N1 (stereo not given),8%,14%,1%,3%,-28%,6.7%,?,·
Cc1nc(SCC(=O)NCC2COc3ccccc3O2)c2c(C)c(C)sc2n1 (stereo not given),2%,2%,·,·,-11%,·,-16%[46.1 µM],?
O=C(O)c1cc(NC(=O)c2ccc([N+](=O)[O-])cc2)cc(NC(=O)c2ccc([N+](=O)[O-])cc2)c1,1%,1%,8%,·,19%[46.1 µM],·,7%[46.1 µM],-10%

# Following part
SMILES,SARS PLP yeast,RE007 growth inh,NS1 inh,Cruzain inh noDet,Lassa entry inh,Cruzain inh Det,Marburg entry inh,2A StopGo
O=C1CC(c2nc(-c3cccc(Cl)c3)no2)CN1c1ccc2c(c1)OCCO2 (stereo not given),·,·,·,20%,?,-6.7%,·,-3%
C=CCNS(=O)(=O)c1ccc(OCC(=O)OCC)cc1,-7%,-2%,2%,9%,?,-3.1%,-6%,31%[activator]
CSCCC(NC(=O)c1ccccc1)C(=O)N1CCN(C(C)=O)CC1 (stereo not given),0%,1%,·,·,-6%,·,?,-16%
CCc1ccc(-n2nc(CO)c(C(=O)NCCCc3ccccc3)n2)cc1,·,·,·,0%,8%[46.1 µM],-2.4%,9%[46.1 µM],17%
Cc1ccc(-c2nn(Cc3ccccc3)cc2C=O)cc1C,-10%,1%,-21%,-2%,-14%,-5.9%,16%,46%[activator]
CCn1c(SCc2ccccc2Cl)nc2ccccc21,-3%,-15%,-73%,-5%,-27%,-1.5%,-22%[46.1 µM],-8%
CCc1ccc(C(=O)c2cn(CC(=O)Nc3ccc4c(c3)OCO4)c3ccc(CC)cc3c2=O)cc1,·,·,·,-7%,3%[46.1 µM],-1.0%,8%[46.1 µM],0%
CC(C)Cn1cnc2c(c(-c3ccccc3)c(-c3ccccc3)n2Cc2ccco2)c1=N,-2%,1%,3%,-7%,6.3µM*,-0.6%,2.8µM*,?
COc1cccc(CNc2ncnc3c2nnn3C)c1,·,·,·,-4%,18%[46.1 µM],0.1%,·,0%
COc1cc2c(cc1OC)/C(=C/C(=O)c1ccc(F)cc1)NCC2,-5%,-13%,1%,·,?,·,-19%,-14%
Cc1ccccc1OCc1n[nH]c(=S)n1Cc1ccccc1,?,13%,2%,-9%,0%,-8.2%,-4%,-25%
CN1CC(c2ccc(C#N)cc2)C2(COc3ccccc3C2=O)C12C(=O)Nc1ccccc12 (stereo not given),-10%,1%,5%,-4%,-9%,-0.6%,-12%,0%
Cc1nnsc1Sc1cccc(C(F)(F)F)c1,3%,2%,2%,-8%,2%,0.6%,-13%,0%
CCCc1cc(=O)[nH]c(SCC(=O)N2CCN(S(=O)(=O)c3ccc(Cl)cc3)CC2)n1,-8%,6%,-2%,-9%,-8%,-2.0%,?,3%
Cc1ccc(C(=O)NC(C)c2ccc(S(N)(=O)=O)cc2)s1 (stereo not given),2%,-5%,-2%,·,2%,·,15%[46.1 µM],-9%
COc1ccccc1N(C(C)=O)c1nc(C)cc(C)c1C#N,11%,17%,9%,-20%,16%,0.7%,-1%,-20%
N#Cc1c(/N=C/c2cccs2)sc2c1CCC2,11%,-17%,-4%,0%,-5%,-13%,-4%,40%[activator]
C#CCNc1ccc([N+](=O)[O-])cc1,-3%,-5%,·,·,-17%,·,0%[46.1 µM],14%
C=CCc1ccc(OCCOc2cccc(/C=N/n3cnnc3)c2)c(OC)c1,·,27%,·,·,?,·,?,-17%
CSc1nc2c(c(=O)[nH]c(=O)n2C)n1Cc1ccccc1,0%,1%,12%,·,?,·,-6%,-15%
CC(=O)Nc1cccc2c1C(=O)N(c1ccccc1C)C2=O,0%,5%,·,·,5%[46.1 µM],·,-9%[46.1 µM],-13%
Cc1ccc(-n2nnnc2SCC(=O)c2c(N)n(CC(C)C)c(=O)n(C)c2=O)cc1,-1%,8%,3%,?,-22%,4.4%,-1%,14%
CC(C(=O)c1ccc(-c2ccccc2)cc1)[n+]1cccc(Br)c1 (stereo not given),-2%,-12%,-38%,·,21%[46.1 µM],·,-1%[46.1 µM],-19%
Cn1c(=O)n(Cc2ccccc2)c(=O)c2c1nc1n2CCN1c1ccccc1,·,·,·,-8%,11%[46.1 µM],-1.3%,·,8%
O=C1C(=O)N(CNc2ccccn2)c2ccccc21,-1%,-6%,3%,-10%,?,3.8%,?,8%

# Later entries
SMILES,SARS PLP yeast,RE007 growth inh,NS1 inh,Cruzain inh noDet,Lassa entry inh,Cruzain inh Det,Marburg entry inh,2A StopGo
O=C(NCC(c1ccco1)S(=O)(=O)c1cccs1)c1ccc(Cl)cc1 (stereo not given),·,·,·,3%,-4%[46.1 µM],-1.9%,·,-15%
O=C(Cc1cccs1)NC1C(=O)N2C(C(=O)[O-])=C(C[n+]3ccccc3)CSC12 (stereo not given),·,·,·,?,?,-18%,1%&1%&1%,·
O=C(COc1cccc2ccccc12)NNC(=O)c1cnccn1,8%,-13%,-20%,2%,-35%,-4.9%,-10%,-6%
Cc1nnc(N2CCN(C(=O)Nc3cccc(C(F)(F)F)c3)CC2)c2nn(-c3ccccc3)c(C)c12,·,·,·,-13%,-17%[46.1 µM],-3.4%,·,?
Cc1cccc(N2C(=O)CN=C2Nc2nc(C)cc(C)n2)c1,3%,-12%,0%,6%,-5%,-0.7%,6%[46.1 µM],-15%
COC(=O)C1=C(C)N(Cc2ccccc2)C(=NCCc2c[nH]c3ccccc23)N[C@H]1c1ccccc1,3%&-6%,-19%,15%,·,·,·,·,?
Cc1c(C)c2c(OCC(=O)N3CCC(C(=O)O)CC3)cc3c(c2oc1=O)CCC(C)(C)O3,6%,-13%,?,·,·,·,·,-9%
Cc1ccc(CCNC(=O)Cn2c(-c3cccs3)cc3cc(F)ccc32)cc1,·,·,·,16µM*,-10%[46.1 µM],-3.7%,-14%[46.1 µM],-6%
O=C(NCc1ccncc1)c1ccc(S(=O)(=O)Nc2ccccc2)cc1,3%,12%,·,·,11%,·,-24%,10%
CCn1c(SCC(=O)NCC2CCCO2)nc2c(c1=O)SC(C)C2 (stereo not given),12%,7%,2%,6%,0%,-2.6%,-23%,-11%
CC1(C(=O)NC2CCCCCC2)CCC(=O)N1Cc1ccc2c(c1)OCO2 (stereo not given),0%,1%,0%,2%,-1%,5.8%,-2%,21%
CCOC(=O)c1c(C)n(CCO)c2ccc(O)cc12,·,-1%,5%,-5%,-5%,1.3%,?,-14%
Cc1ccc2[nH]cc(CCNC(=O)c3cccnc3)c2c1,2%,-3%,0%,-2%,-5%,-0.4%,5%,-24%
Cc1ccc(NC(=O)c2sc3nc(N)c(C#N)cc3c2N)cc1,13%,8%,12%,-3%,2%,-10%,30%[46.1 µM],20%
Cn1nnnc1SCC(=O)Nc1ccc(Cl)cn1,1%,-9%,7%,·,?,·,12%[46.1 µM],-12%
Cc1cc2oc(=O)cc(CN3CCCCC3C)c2cc1C (stereo not given),-2%,10%,6%,·,29%[46.1 µM],·,-13%[46.1 µM],15%

# Random draw from the library; overall some 4.5% were active at least once.
